Lassa entry inh: Lassa virus entry inhibition. AID 540256. Potency, µM (titrated, usually from 37.9 µM), for inactives: at the highest dose activity change, negative = inhibition, usual class: inhibitors. Lassa virus pseudotype entry inhibition, cell reporter; control for the full effect not named in the record. 300,000 compounds, 1.2% hits; active means well fitted inhibition curve with a large enough effect; inconclusive means small, poorly fitted or top-dose-only effect, or effect the other way; inactive means flat fitted curve, though single readings scatter; tested in HEK293 cells; also: % is scaled to controls: 0 for no effect and ±100 for the full control effect; nearly all actives have a fitted effect of over 50% in size; luciferase read-out
Cruzain Triton: blocks cruzain activity in presence of Triton detergent; 200,000 compounds, 0.43% hits; Potency, µM, inactives show max response, negative = inhibition, hits mostly inhibitors; P25779; purified cruzain, Z-FR-AMC fluorescence, 0.01% Triton; AID 1478; active = well fitted curve in the direction sought with a large enough effect; inconclusive = small, poorly fitted or top-dose-only effect, or another doubt; inactive = no such curve, though single readings can be large; an effect the other way counts as inactive or inconclusive;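 also: plate controls were neutral wells for no effect and buffer without enzyme for full effect; nearly all actives have a fitted effect of over 40% in size; top concentration of the series not given in the record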
Target sequence (P25779 123-467 limits assumed): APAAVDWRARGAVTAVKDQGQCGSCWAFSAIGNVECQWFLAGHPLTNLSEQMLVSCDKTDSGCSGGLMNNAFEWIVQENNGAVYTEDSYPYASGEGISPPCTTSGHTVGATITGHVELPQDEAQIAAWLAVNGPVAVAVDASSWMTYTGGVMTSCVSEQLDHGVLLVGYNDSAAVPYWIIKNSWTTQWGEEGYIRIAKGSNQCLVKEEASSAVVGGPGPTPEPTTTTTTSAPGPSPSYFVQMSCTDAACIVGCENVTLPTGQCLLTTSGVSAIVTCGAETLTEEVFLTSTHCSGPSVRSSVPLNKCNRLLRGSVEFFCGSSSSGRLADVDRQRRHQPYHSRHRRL
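15 min RT preincubation of 1.5 nM cruzain with compound, then 2 uM Z-FR-AMC added; kinetic AMC fluorescence, 60 s delta. Triton X-100 0.01%, pH 5.5.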
Cruzain noTriton: inhibitors of Trypanosoma cruzi cruzain without detergent; 200,000 compounds, 2.3% hits; purified cruzain, Z-FR-AMC fluorescence, no detergent; Potency, µM, for the others: max response, negative = inhibition, hits mostly inhibitors; P25779; active = well fitted curve in the direction sought with a large enough effect; inconclusive = small, poorly fitted or top-dose-only effect, or another doubt; inactive = no such curve, though single readings can be large; an effect the other way counts as inactive or inconclusive;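 also: plate controls were enzyme without inhibitor for no effect and buffer without enzyme for full effect; nearly all actives have a fitted effect of over 40% in size; top concentration of the series not given in the record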
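Detergent-free condition (0.00005% Triton X-100) in acetate buffer pH 5.5 with DTT. 1.5 nM enzyme and compound were pre-mixed 15 min, then 2 uM Z-FR-AMC substrate added; reaction progress from fluorescence change between first and third reads (60 s).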
RE007 growth inh: less growth of the S. pombe RE007 Vpr strain; Potency, µM (doses to about 92.2 µM), for inactives: top-dose activity change, negative = less growth; 360,000 compounds, 0.21% hits; S. pombe RE007 Vpr strain, BacTiter-Glo ATP luminescence, 24 h; control for the full effect not named in the record; active = well fitted falling curve with a large enough effect; inconclusive = small, poorly fitted or top-dose-only effect; inactive = no such curve, though single readings can be large or run the other way;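 also: % is scaled to controls: 0 for no effect and ±100 for the full control effect; nearly all actives have a fitted effect of over 50% in size; the assay follows cell death caused by Vpr and the record does not say whether a fall means rescue or toxicity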
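Fission yeast strain RE007, carrying one chromosomally integrated HIV-1 vpr copy, was seeded at OD 0.01 in PMG+AL medium with 23 nL pinned compound. After 24 h at 30 °C and 99% humidity, viability was read by BacTiter-Glo luminescence.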
SARS PLP yeast: SARS-CoV PLP inhibition in yeast; S. cerevisiae expressing SARS-CoV PLpro, growth rescue; control for the full effect not named in the record; Potency, µM (top dose mostly 32.9 µM), without a hit: at the top dose activity, positive = growth rescue; 330,000 compounds, 0.19% hits; AID 485353; also: 0% is about no effect; nearly all actives have a fitted effect of over 55% in size; growth read by luminescence after 48 h
2A StopGo: lowers the luciferase signal of an FMDV 2A StopGo reporter; human cells with a luciferase reporter of 2A StopGo recoding; control for the full effect not named in the record; Potency, µM (doses to about 57.9 µM), inactives show at the top dose signal change, negative = less light; 410,000 compounds, 1.2% hits; AID 1159524; active = well fitted falling curve with a large enough effect; inconclusive = small, poorly fitted or top-dose-only effect; inactive = no such curve, though single readings can be large or run the other way; tested in HEK293T cells; also: % is scaled to controls: 0 for no effect and ±100 for the full control effect; nearly all actives have a fitted effect of over 45% in size; luciferase light after 4 h
NS1 inh: inhibitors of influenza NS1 protein function; S. cerevisiae slowed by influenza A NS1, growth recovery by OD600; Potency, µM (top dose mostly 46.1 µM), without a hit: at the top dose activity, positive = more growth; 270,000 compounds, 0.4% hits; AID 2326; also: actives are rising curves; nearly all actives have a fitted effect of over 50% in size
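A cell-based growth assay was used: compounds that relieve NS1-induced slow growth of budding yeast raise OD600. Assay medium was yeast nitrogen base with ammonium sulphate and -URA supplement, pH 6.0, with 2% galactose.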
Marburg entry inh: inhibitors of Marburg virus binding or cell entry; Marburg virus pseudotyped entry inhibition, cell reporter; control for the full effect not named in the record; about a third of the inactives were read at about 46 µM; Potency, µM (series often up to 37.8 µM), for the others: at the top dose activity change, negative = inhibition, most hits filed as inhibitors; 300,000 compounds, 1.8% hits; AID 540276; active = well fitted inhibition curve with a large enough effect; inconclusive = small, poorly fitted or top-dose-only effect, or effect the other way; inactive = flat fitted curve, though single readings scatter; tested in HEK293 cells; about a fifth of its hits are not listed in these tables; also: % is scaled to controls: 0 for no effect and ±100 for the full control effect; luciferase read-out
The depositor's hits bear a star; ? = inconclusive; / = no result given; & = joins results of further samples; [ ] = remark or other dose. Unless noted, calls follow the shape of the dose curve; as a rule, active means well fitted rising curve with a large enough effect; inconclusive means small, poorly fitted or top-dose-only effect; inactive means no such curve, though single readings can be large or run the other way. Potency is read from the fitted curve at half-maximal effect.

SMILES | Lassa entry inh | Cruzain Triton | Cruzain noTriton | RE007 growth inh | SARS PLP yeast | 2A StopGo | NS1 inh | Marburg entry inh
Cc1ccc(S(=O)(=O)N2CCC(C(=O)OCc3c(C)noc3C)CC2)cc1C | -15% | / | / | 3% | 2% | -21% | / | -21%
CC1=C(C(=O)OC2CCCC2)C(c2ccccc2Cl)CC(=O)N1 (stereo not drawn) | -21%[46.1 µM] | -4.4% | 9% | / | / | 0% | / | -1%[46.1 µM]
Cc1ccc(CSCCC(=O)NCc2ccc(F)cc2Cl)cc1 | -15%[46.1 µM] | -0.7% | -12% | / | / | -2% | / | /
CCCSc1ncc(Cl)c(C(=O)Nc2scc(-c3ccc(C)cc3)c2C(=O)OCC)n1 | -15%[46.1 µM] | -1.3% | -5% | / | / | 15% | / | 0%[46.1 µM]
COc1ccc(CC(=O)N2CCN(c3ccccc3F)CC2)cc1OC | ? | / | / | -1% | 8% | -22% | 8% | ?
O=C(O)c1[nH]c2ccc(Br)cc2c1CCN1C(=O)c2cccc([N+](=O)[O-])c2C1=O | / | / | / | 11% | 0% | -13% | 13% | 4%
NS(=O)(=O)c1cccnc1Nc1c(Cl)cccc1Cl | 0% | -5.6% | 4% | -3% | 2% | -22% | 9% | ?
Cc1ccc(NC(=O)C2CCN(C(=O)[C@@H]3Cc4ccccc4CN3)CC2)c(C)c1 | / | / | / | -3% | 3% | 4% | 7% | /
C#CCOCCOCCOCCNc1nc(N2CCN(C(=O)C([C@@H](C)CC)n3cc(C(N)Cc4ccc(O)cc4)nn3)CC2)nc(N2CCN(C(=O)[C@H](CCC(=O)O)n3cc(C(N)Cc4ccc(O)cc4)nn3)CC2)n1 (stereo partly drawn) | / | / | / | -5% | 0% | 9% | 8% | /
Cc1ccc(S(=O)(=O)N/N=C\C=C\c2ccccc2)cc1 | 12% | -8.5% | -6% | 8% | ? | 75%[activator] | 19% | -9%
CCCc1cc(=O)oc2cc(OCC(=O)N3CCOCC3)c(Cl)cc12 | 5%[46.1 µM] | / | / | 10% | 2% | 3% | -8% | 1%[46.1 µM]
Cc1ccc(NC(=O)Nc2cnccn2)c(C)c1 | 21%[46.1 µM] | / | / | -4% | 5% | 16% | 1% | ?
Cc1ccnc(NS(=O)(=O)c2ccccc2)c1 | / | / | / | 2% | 4% | 57%[activator] | 12% | /
CC(=O)c1ccc(C(=O)N2CCc3c([nH]c4ccccc34)C2c2cccc(C)n2)s1 (stereo not drawn) | 4% | / | / | 7% | -1% | -13% | 4% | ?
CCc1ccc(OCC(=O)N2CCN(Cc3ccc4c(c3)OCO4)CC2)cc1 | ? | / | / | 15% | 0% | ? | -7% | 8%
CCN(CC)C(=O)C1CCCN(c2ccc([N+](=O)[O-])cc2/C=N/NC(=O)c2ccccc2)C1 (stereo not drawn) | 5% | -6.0% | 29% | -2% | 1% | -11% | 8% | ?
O=C(CC1CCCC1)NCCc1cn2ccccc2n1 | / | -14% | -3% | 3% | 8% | -10% | -30% | /
CC1CN(C2CCCCC2)C(=S)NC1=O (stereo not drawn) | -1%[46.1 µM] | / | / | 1% | / | 1% | / | -5%[46.1 µM]
CCCCc1nc2cc(C(=O)NCc3cn(C)nc3C)ccc2o1 | ? | / | / | 11% | -1% | -13% | -22% | 11%[46.1 µM]
CCc1ccc(NC(=O)C(=O)N/N=C(\C)CC(=O)NCCOC)cc1 | -1%[46.1 µM] | / | / | -5% | -1% | 9% | / | ?
COc1ccc(S(=O)(=O)N2CCN(CC(=O)Nc3cccc(F)c3)CC2)cc1 | 15% | 6.5% | 6% | 20% | -1% | -15% | -34% | -1%
Cn1c(NNC(=O)c2ccccc2F)cc(=O)n(C)c1=O | / | / | / | 1% | 2% | -8% | -1% | /
Cc1ccc(Nc2n[nH]c(C)c2[N+](=O)[O-])cc1 | 14% | -4.9% | -1% | -10% | -20% | 21% | -14% | -6%
COCCN1C(=O)c2ccccc2C(C(=O)NCCN(C)C)C1c1ccc(F)cc1 (stereo not drawn) | 4% | -0.2% | 3% | 11% | -7% | 12% | -4% | -5%
CCOC(=O)c1[nH]ncc1CN1CCCC(C(=O)c2cc(Cl)ccc2OC)C1 (stereo not drawn) | / | / | / | 0% | 0% | 6% | 1% | /
Other compounds.
SMILES | Lassa entry inh | Cruzain Triton | Cruzain noTriton | RE007 growth inh | SARS PLP yeast | 2A StopGo | NS1 inh | Marburg entry inh
Cc1ccc(-n2[nH]c(C)c(C=Nc3ccc4[nH]c(=O)[nH]c4c3)c2=O)cc1C | ? | -4.3% | ? | -16% | -4% | ? | 22% | ?
Cc1ccc(CCNC(=O)C2COc3ccccc3C2)cc1 (stereo not drawn) | 14%[46.1 µM] | -1.3% | -4% | / | / | -6% | / | /
O=C(Nc1ccc(-c2nnc(-c3ccco3)o2)cc1)C(c1ccccc1)c1ccccc1 | 0% | 6.3% | -3% | -8% | 4% | -25% | -7% | -19%
CCN(CC)c1cc(Cl)nc(N)n1 | / | / | / | -4% | -1% | -7% | 3% | /
CCNC(=O)NC(=O)C(C)OC(=O)Cc1coc2cc3c(cc12)CCC3 (stereo not drawn) | 18%[46.1 µM] | / | / | 3% | -1% | -4% | 5% | 18%[46.1 µM]
CC(C)Cn1c(SCC#N)nc2ccccc2c1=O | 1% | -4.0% | 1% | -8% | 10% | 0% | -13% | -20%&-20%
CC(=O)Nc1ccc(NS(=O)(=O)c2c(C)nc3sccn3c2=O)cc1 | 6%[46.1 µM] | -2.0% | 3% | / | / | -1% | / | /
CC(C)(C)N(NC(=O)OCc1ccccc1)C(=O)c1ccccc1Cl | 17% | -2.1% | 8% | 7% | 8% | -10% | -2% | -7%
CCOC(=O)c1cccc(NC(=O)CCc2c(C)nc3c4cccnc4nn3c2C)c1 | 11%[46.1 µM] | -2.0% | 8% | / | / | ? | / | -14%[46.1 µM]
Cc1ccc(C2(c3noc(CN4CCOCC4)n3)CCCC2)cc1 | / | / | / | 10% | 0% | -11% | -5% | /
COc1ccccc1NC(=O)Cn1c(=O)c(CNc2ccccc2)cc2cc(OC)c(OC)cc21 | -5%[46.1 µM] | -4.2% | ? | / | / | 16% | / | /
Cc1cccc(C)c1NC(=O)C[n+]1cc(-c2ccccc2)n2c1CCC2 | 4% | / | / | 1% | 0% | -8% | -5% | 2%
O=C(NCCCCCCNC(=O)OCCO)OCCO | -9% | / | / | 10% | 0% | -15% | / | 11%[46.1 µM]
CCOC(=O)c1c(NC(=O)COC(=O)c2ccccc2NC)sc(C(=O)N(C)C)c1C | ? | / | / | -5% | -2% | 25µM* | 17% | ?
Cc1ccc(NC(=O)Cn2c(CCC(=O)O)ccc2-c2cccs2)cc1Cl | -5%&3%[46.1 µM] | -12% | -9% | 43% | -4% | -4%&5% | / | ?
CSC1=C(C#N)C(CC(C)C)C2=C(CCCC2=O)N1 (stereo not drawn) | -1% | 2.8% | 2% | -6% | 1% | -22% | 8% | -6%
CCOC(=O)C1=C(O)C(=O)N(c2ccc(S(N)(=O)=O)cc2)C1c1ccccc1 (stereo not drawn) | 0% | 1.0% | -4% | 1% | 2% | 0% | -9% | 10%
COc1ccccc1N1CCN(CC(=O)Nc2ccccc2C(=O)NC(C)c2ccccc2)CC1 (stereo not drawn) | ? | / | / | 4% | -5% | -32% | / | ?
COC(=O)CSC1=NP(=S)(SCC(=O)OC)N2CCCC2=C1C#N (stereo not drawn) | -7% | -4.4% | -6% | -2% | 3% | ? | 0% | 11%
Cc1ccc(SCC(=O)NC(C)c2ccccc2)cc1 (stereo not drawn) | 16% | / | / | 3% | -1% | 26% | -12% | 12%
CCC(=O)Nc1nnc(SCc2cc(=O)c3cc(C)ccc3[nH]2)s1 | 21%[46.1 µM] | 3.9% | -8% | / | / | -27% | / | /
CC(=O)Nc1ccc(NC(=S)NC(=O)c2ccc([N+](=O)[O-])cc2)cc1 | 6% | -7.5% | 7% | 1% | -21% | 7% | 16% | -1%
CCO[C@H]1OC(C(=O)NC2CC2)=C[C@@H](c2c[nH]c3ccccc23)[C@@H]1CCCO | / | / | / | -5% | 0% | -15% | 3% | /
COC(=O)c1ccsc1NC(=O)CN1CCN(Cc2ccc3c(c2)OCO3)CC1 | 3% | 2.9% | 2% | -7% | 2% | -14% | 1% | -6%

8 of these compounds in another layout:
The line under a structure holds: Lassa entry inh, Cruzain Triton, Cruzain noTriton, RE007 growth inh, SARS PLP yeast, 2A StopGo, NS1 inh, Marburg entry inh
> Cc1ccc(S(=O)(=O)N2CCC(C(=O)OCc3c(C)noc3C)CC2)cc1C
 : -15%, /, /, 3%, 2%, -21%, /, -21%
> CC1=C(C(=O)OC2CCCC2)C(c2ccccc2Cl)CC(=O)N1 (stereo not drawn)
 : -21%[46.1 µM], -4.4%, 9%, /, /, 0%, /, -1%[46.1 µM]
> Cc1ccc(CSCCC(=O)NCc2ccc(F)cc2Cl)cc1
 : -15%[46.1 µM], -0.7%, -12%, /, /, -2%, /, /
> CCCSc1ncc(Cl)c(C(=O)Nc2scc(-c3ccc(C)cc3)c2C(=O)OCC)n1
 : -15%[46.1 µM], -1.3%, -5%, /, /, 15%, /, 0%[46.1 µM]
> COc1ccc(CC(=O)N2CCN(c3ccccc3F)CC2)cc1OC
 : ?, /, /, -1%, 8%, -22%, 8%, ?
> O=C(O)c1[nH]c2ccc(Br)cc2c1CCN1C(=O)c2cccc([N+](=O)[O-])c2C1=O
 : /, /, /, 11%, 0%, -13%, 13%, 4%
> NS(=O)(=O)c1cccnc1Nc1c(Cl)cccc1Cl
 : 0%, -5.6%, 4%, -3%, 2%, -22%, 9%, ?
> Cc1ccc(NC(=O)C2CCN(C(=O)[C@@H]3Cc4ccccc4CN3)CC2)c(C)c1
 : /, /, /, -3%, 3%, 4%, 7%, /

Outcome played no part in choosing rows, and some 4.5% of all compounds hit somewhere here.
